Screening results deposited in PubChem by National Center for Advancing Translational Sciences (NCATS).
SARS PLP yeast – SARS-CoV PLP inhibition in yeast; Potency, µM (highest dose often 32.9 µM), for the others: at the highest dose activity, positive = growth rescue; actives 0.19% (n = 330,000); AID 485353; S. cerevisiae expressing SARS-CoV PLpro, growth rescue; control for the full effect not named in the record; active means well fitted rising curve with a large enough effect; inconclusive means small, poorly fitted or top-dose-only effect; inactive means no such curve, though single readings can be large or run the other way; further: 0% is about no effect; nearly all actives have a fitted effect of over 55% in size; growth read by luminescence after 48 h
Cruzain inh Det – cruzain (T. cruzi) inhibition with detergent; P25779; Potency, µM, inactives show max response, negative = inhibition, most hits filed as inhibitors; actives 0.43% (n = 200,000); AID 1478; purified cruzain, Z-FR-AMC fluorescence, 0.01% Triton;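 further: plate controls were neutral wells for no effect and buffer without enzyme for full effect; nearly all actives have a fitted effect of over 40% in size; top concentration of the series not given in the record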
Target sequence (P25779 123-467 limits assumed): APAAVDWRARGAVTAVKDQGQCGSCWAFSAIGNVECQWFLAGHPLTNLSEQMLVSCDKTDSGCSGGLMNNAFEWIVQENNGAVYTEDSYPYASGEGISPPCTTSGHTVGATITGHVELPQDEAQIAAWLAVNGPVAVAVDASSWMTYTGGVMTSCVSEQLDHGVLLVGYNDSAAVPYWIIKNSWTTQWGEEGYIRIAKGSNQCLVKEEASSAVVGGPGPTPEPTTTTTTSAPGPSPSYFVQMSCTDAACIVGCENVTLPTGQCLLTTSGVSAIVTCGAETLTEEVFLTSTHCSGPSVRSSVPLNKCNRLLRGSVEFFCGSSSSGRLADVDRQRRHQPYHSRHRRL
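Steps: dispense cruzain (1.5 nM final) in acetate buffer pH 5.5 with DTT and 0.01% Triton X-100; pin-transfer compounds; incubate 15 min RT; add Z-FR-AMC (2 uM final); read fluorescence every 30 s, using the 60 s intensity change.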
RE007 growth inh – less growth of the S. pombe RE007 Vpr strain; Potency, µM (titrated, usually from 92.2 µM), without a hit: top-dose activity change, negative = less growth; S. pombe RE007 Vpr strain, BacTiter-Glo ATP luminescence, 24 h; control for the full effect not named in the record; AID 651644; actives 0.21% (n = 360,000); active = well fitted falling curve with a large enough effect; inconclusive = small, poorly fitted or top-dose-only effect; inactive = no such curve, though single readings can be large or run the other way;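 further: on the % scale 0 is the no-effect control and ±100 the full control effect; nearly all actives have a fitted effect of over 50% in size; the assay follows cell death caused by Vpr and the record does not say whether a fall means rescue or toxicity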
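Fission yeast RE007 carrying one integrated HIV-1 vpr copy, seeded at OD 0.01 in PMG+AL medium with 23 nL pinned compound. Grown 24 h at 30 degrees; viability read by BacTiter-Glo luminescence after 5 min.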
Cruzain inh noDet – blocks cruzain activity in detergent-free assay; P25779; purified cruzain, Z-FR-AMC fluorescence, no detergent; Potency, µM, for inactives: max response, negative = inhibition, most hits filed as inhibitors; actives 2.3% (n = 200,000); AID 1476;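 further: plate controls were enzyme without inhibitor for no effect and buffer without enzyme for full effect; nearly all actives have a fitted effect of over 40% in size; top concentration of the series not given in the record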
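Detergent-free condition (0.00005% Triton X-100) in acetate buffer pH 5.5 with DTT. 1.5 nM enzyme and compound were pre-mixed 15 min, then 2 uM Z-FR-AMC substrate added; reaction progress from fluorescence change between first and third reads (60 s).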
LASV entry inh – Lassa virus entry inhibition; Lassa virus pseudotype entry inhibition, cell reporter; control for the full effect not named in the record; Potency, µM (doses to about 37.9 µM), inactives show top-dose activity change, negative = inhibition, usual class: inhibitors; actives 1.2% (n = 300,000); AID 540256; active means well fitted inhibition curve with a large enough effect; inconclusive means small, poorly fitted or top-dose-only effect, or effect the other way; inactive means flat fitted curve, though single readings scatter; tested in HEK293 cells; further: on the % scale 0 is the no-effect control and ±100 the full control effect; nearly all actives have a fitted effect of over 50% in size; luciferase read-out
NS1 inh – influenza NS1 inhibition; S. cerevisiae slowed by influenza A NS1, growth recovery by OD600; Potency, µM (series often up to 46.1 µM), for inactives: at the highest dose activity, positive = more growth; actives 0.4% (n = 270,000); AID 2326; active means well fitted rising curve with a large enough effect; inconclusive means small, poorly fitted or top-dose-only effect; inactive means no such curve, though single readings can be large or run the other way; further: nearly all actives have a fitted effect of over 50% in size
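S. cerevisiae expressing influenza A NS1, grown in glucose, washed, then diluted 1:100 into pH 6.0 -URA galactose medium with 23 nl compound. Growth recovery read as OD600; NS1-free strain serves as control.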
Marburg entry inh – inhibitors of Marburg virus binding or cell entry; Marburg virus pseudotyped entry inhibition, cell reporter; control for the full effect not named in the record; about a third of the inactives were read at about 46 µM; Potency, µM (titrated, usually from 37.8 µM), for the others: at the highest dose activity change, negative = inhibition, hits mostly inhibitors; actives 1.8% (n = 300,000); AID 540276; active = well fitted inhibition curve with a large enough effect; inconclusive = small, poorly fitted or top-dose-only effect, or effect the other way; inactive = flat fitted curve, though single readings scatter; tested in HEK293 cells; about a fifth of its hits are not listed in these tables; further: on the % scale 0 is the no-effect control and ±100 the full control effect; luciferase read-out
StopGo reporter – lowers the luciferase signal of an FMDV 2A StopGo reporter; human cells with a luciferase reporter of 2A StopGo recoding; control for the full effect not named in the record; Potency, µM (titrated, usually from 57.9 µM), for inactives: at the highest dose signal change, negative = less light; actives 1.2% (n = 410,000); active = well fitted falling curve with a large enough effect; inconclusive = small, poorly fitted or top-dose-only effect; inactive = no such curve, though single readings can be large or run the other way; tested in HEK293T cells; further: on the % scale 0 is the no-effect control and ±100 the full control effect; nearly all actives have a fitted effect of over 45% in size; luciferase light after 4 h
The depositor's hits bear a star; ? = inconclusive; nt = no result given; & = joins results of further samples; [ ] = dose if it differs, or a comment. Unless noted, the call rests on the fitted dose curve; in most records, active means well fitted curve in the direction sought with a large enough effect; inconclusive means small, poorly fitted or top-dose-only effect, or another doubt; inactive means no such curve, though single readings can be large; an effect the other way counts as inactive or inconclusive. Potency means the concentration at half of the fitted maximal effect.

SMILES	SARS PLP yeast	Cruzain inh Det	RE007 growth inh	Cruzain inh noDet	LASV entry inh	NS1 inh	Marburg entry inh	StopGo reporter
CC(CCc1ccc(O)cc1)N(C)CCc1ccccc1 (stereo not given)	1%	2.3%	6%	-2%	0%	5%	-15%	2%
Cc1cc(-c2ccc(C)c(S(=O)(=O)NCCc3ccco3)c2)on1	?	nt	2%	nt	nt	9%	nt	43%[activator]
c1cc2c(cc1C1CCCCC1)c1c3n2CCN=C3CCC1	-41%	-6.5%	35%	?	-3%	16%	?	-22%
Cc1ccccc1CNC(=O)CC1C(=O)NCCN1Cc1c(F)cccc1Cl (stereo not given)	-1%	nt	5%	nt	-20%[46.1 µM]	1%	6%[46.1 µM]	3%
COc1ccc(-c2csc(N(CCc3ccccc3)C(=O)COc3ccccc3)n2)cc1	3%	3.1%	11%	13µM*	?	2%	-8%	-7%
COc1ccccc1CN1CC(C(=O)NCCn2ccc(C)n2)CCC1=O (stereo not given)	1%	nt	5%	nt	nt	5%	nt	2%
CCN(CC)CCN(C)C1CCC(c2ccccc2)CC1 (stereo not given)	-28%	1.7%	nt	-2%	?	-5%	?	-13%
Cc1c(-c2ccc(F)cc2)[n+](=O)c(-c2ccc(F)cc2)c(C)n1[O-]	2%	-3.5%	13%	-8%	-10%	3%	10%	0%
Cc1ccc(-c2csc3ncnc(NCCN4CCOCC4)c23)cc1	11%	6.1%	-20%	0%	?	-16%	11µM*	-7%
CCOC(=O)N1CCN(C(=O)CC(C(=O)N2CCc3ccccc32)n2ccnc2)CC1 (stereo not given)	6%	2.0%	14%	-18%	-1%	-8%	7%	9%
O=c1c2ccccc2nc(/C=C/c2ccc(O)cc2)n1CCc1ccccc1	-13%	-6.0%	-12%	-11%	9.2µM*	30%	?	35µM*
COc1cccc(OCC(=O)NNC(=O)Cc2cccs2)c1	?	0.0%	0%	-7%	11%	-2%	?	2%
COc1cc(/C=C2/NC(=O)N(c3cccc(Cl)c3)C2=O)ccc1O	1%	nt	3%	nt	-16%[46.1 µM]	8%	?	-4%
O=C1OCCC1Sc1nnc(-c2ccc(O)cc2)o1 (stereo not given)	4%	2.0%	-18%	-6%	-5%	-19%	-9%	2%
CCOC(=O)c1cc(-c2ccccc2)n(-c2cccc(C(=O)NC(C)(C)C)c2)c1C	nt	-0.2%	nt	-1%	-22%[46.1 µM]	nt	nt	-9%
O=[N+]([O-])c1cccnc1N1CCN(c2ccccc2F)CC1	1%	nt	1%	nt	-10%	nt	8%	0%
CCCC(=O)Nc1cc(C)c(NC(=O)C23CC4CC(CC(C4)C2)C3)cn1	0%	3.1%	-10%	-5%	10%	-11%	-6%[46.1 µM]	14%
CC(Sc1nnc(-c2ccc(Cl)cc2Cl)n1Cc1ccccc1)C(=O)Nc1nccs1 (stereo not given)	-6%	0.8%	13%	-2%	?	-48%	?	?
O=C(CSc1cn[nH]n1)Nc1ccccc1C(=O)O	-6%	nt	27%	nt	-1%	-37%	2%[46.1 µM]	2%
CCOC(=O)Cn1nnnc1CN(Cc1cccs1)Cc1cc2cc(C)ccc2[nH]c1=O	8%	-1.8%	8%	12%	-5%	5%	-22%	-9%
COC(=O)Cc1cc(=O)n(-c2nc3ccccc3s2)[nH]1	0%	-24%	6%	?	4%	?	7%	nt
CCc1ccc(C2CC(=O)c3c([nH]c(C(=O)OCCOc4ccccc4)c3C)C2)cc1 (stereo not given)	nt	-2.0%	nt	3%	?	nt	?	?
COc1ccc(-c2csc3nc(-c4ccc(F)cc4)oc(=O)c23)cc1	nt	-6.9%	nt	-2%	-6%[46.1 µM]	nt	nt	-3%
Cc1ccccc1NC(=O)Cc1nc(COC(=O)/C=C/c2ccccc2)cs1	0%	nt	1%	nt	-6%	nt	9%[46.1 µM]	-2%
COc1ccc(/C=N/NC(=O)CN(C2=NS(=O)(=O)c3ccccc32)c2ccccc2)cc1OC	21%	-7.5%	5%	?	?	28%	?	-11%
Cn1ccnc1SCC(=O)Nc1cccc(O)c1	3%	3.6%	3%	-4%	16%	11%	?	38%[activator]
O=C(NCCCNc1ccc(C(F)(F)F)cc1[N+](=O)[O-])c1ccc(F)cc1	-6%	-9.6%	?	-3%	-6%	6%	-28%	-7%
COc1ccc(NC(=O)Cn2nnc(C(=O)NCc3ccccc3OC)c2N)cc1Cl	-3%	-0.7%	8%	3%	-1%	3%	0%&0%	-5%
Cc1ccc(N2C(=O)C3CCC(c4ccccc4)CC3C2=O)cc1 (stereo not given)	9%	-0.9%	1%	-3%	6%	-6%	10%	?
COc1ccc(NC(=O)CC2C(=O)N(c3ccc(OC)cc3)C(=O)N2CCN2CCN(C)CC2)cc1 (stereo not given)	0%	-4.7%	-14%	13%	6%	5%	2%	28%
Nc1nnc(SCC(=O)Nc2cccnc2Cl)s1	nt	nt	-8%	nt	21%[46.1 µM]	nt	1%	-9%
O=C(Cn1ncc2c3ccccc3n(Cc3ccccc3)c2c1=O)NCCN1CCOCC1	15%	nt	-2%	nt	nt	21%	nt	-18%
NS(=O)(=O)c1ccc(NC(=O)COc2ccc(C(=O)c3ccc(F)cc3)cc2)cc1	-1%	nt	8%	nt	nt	?	nt	?
CC(=O)Nc1ccc(-c2nc3ccccc3o2)cc1	-1%	nt	9%	nt	nt	-11%	nt	53%[activator]
COc1cccc(/C=N/Nc2ccc([N+](=O)[O-])cn2)c1O	-10%	nt	-33%	nt	?	-66%	?	?
Cc1cc2nc(SCCOC(=O)Nc3cccc(Cl)c3)nc(C)c2cc1C	-2%	-2.3%	14%	-6%	4%	?	-37%	?
COc1cccc(NC(=O)NCc2ccccn2)c1	-4%	nt	13%	nt	nt	3%	nt	9%
CCc1ccccc1N1CC(c2nc3ccccc3n2CC(C)C)CC1=O (stereo not given)	nt	-4.1%	nt	20%	?	nt	-31%[46.1 µM]	8%
COCCNC(=O)CSc1cc(-c2ccccc2)c2ccc(OC)cc2n1	0%	nt	26%	nt	?	nt	-47%	-14%
CC1(C)c2ccccc2N2CCC(=O)NC21/C=C/c1ccco1 (stereo not given)	-8%	-5.2%	-28%	-9%	-13%	11%	-19%	-25%
CCNc1nc(NCC)n2c(SC(C(=O)Nc3cc(C)ccc3C)c3ccccc3)nnc2n1 (stereo not given)	4%	-4.9%	19%	13%	-6%	7%	2%	?
CCCC(=O)Nc1nnc(SCc2cc(=O)c3ccc(C)cc3[nH]2)s1	nt	2.2%	nt	-20%	-8%[46.1 µM]	nt	nt	?
COc1ccc(OC)c(N(CC(=O)NCc2ccncc2)S(C)(=O)=O)c1	nt	5.3%	15%	4%	4%	-2%	1%	7%
COc1cccc(CNC(=O)CSC2=Nc3ccccc3N=C(c3ccc(F)cc3)C2)c1	nt	-1.8%	nt	-9%	-21%[46.1 µM]	nt	nt	0%
O=C(NC1CCSC1=O)c1ccc(Oc2ccc(F)cc2)nc1 (stereo not given)	-5%	2.2%	10%	0%	-2%	5%	?	10%
O=C(NCCc1ccc(Cl)cc1)c1cccc(N2CCCC2=O)c1	?	nt	1%	nt	nt	-17%	nt	20%
Cc1ccc(S(=O)(=O)N(Cc2ccccc2Cl)C(=O)N2CCN(C)CC2)cc1	nt	nt	-1%	nt	?	nt	4%	-13%
O=C(Nc1cccnc1)c1cccnc1	4%	-1.9%	8%	5%	6%	9%	-5%&-5%	11%
Cc1onc(-c2ccccc2)c1C1=N/C(=C\c2ccccc2F)C(=O)O1	2%	nt	2%	nt	-10%	nt	-6%[46.1 µM]	-5%
O=C(NCCc1c[nH]c2ccccc12)Nc1ccccc1C(F)(F)F	nt	-9.8%	nt	21%	?	nt	1%[46.1 µM]	-29%
O=[N+]([O-])c1ccc(/C=N/Nc2ccnc3cc(Cl)ccc23)o1	-13%	nt	-10%	nt	-16%[46.1 µM]	-89%	?	22%
COc1ccc(N(C(=O)c2cnccn2)C(C(=O)NC2CCCCC2)c2ccccc2)cc1 (stereo not given)	1%	nt	27%	nt	?	-13%	8%[46.1 µM]	-9%
Cc1cc(N2CCOCC2)nc(SCC(=O)c2ccccc2)n1	11%	5.0%	-3%	-5%	19%	-8%	-2%	nt
O=C(CSc1nnc(-c2ccccc2O)o1)Oc1ccc(OCc2ccccc2)cc1	1%	3.5%	-9%	?	?	4%	-19%	48%[activator]
O=C(c1ccco1)N1CCN(C(c2ccccc2F)c2nnnn2CC2CCCO2)CC1 (stereo not given)	0%	2.5%	15%	17%	-1%	2%	20%&20%	-18%
CCN1C(=O)N[C@@H](CCc2ccccc2)[C@@H](C(=O)OC)[C@H]1C	-1%	nt	2%	nt	nt	-6%	?	-19%
CC1(C)Cc2c(cnn2-c2ccccc2)C(=O)/C1=N\NC(=O)c1ccncc1	nt	nt	5%	nt	?	nt	16%	2%
COc1ccc(N2CCN(S(=O)(=O)CCNC(=O)Cc3ccc(Cl)cc3)CC2)cc1	nt	-0.9%	nt	3%	0%[46.1 µM]	nt	nt	2%
COc1ccc(OCC(O)CN2CCN(c3ccccc3)CC2)cc1 (stereo not given)	0%	nt	-2%	nt	4%[46.1 µM]	10%	?	3%
Cc1cc(C(=O)N2CCC(Cc3ccccc3)CC2)ccc1[N+](=O)[O-]	0%	-8.4%	2%	1%	-24%	-34%	-21%	-24%
Cc1oc(-c2ccccc2)nc1CS(=O)CC(=O)N1CCc2ccccc2C1 (stereo not given)	-5%	-3.5%	-13%	5%	nt	?	nt	6%
CCOC(=O)/C(N=Nc1c(C)n(C)n(-c2ccccc2)c1=O)=C(/O)c1ccccc1	1%	nt	0%	nt	7%	nt	-2%[46.1 µM]	2%
Cc1ccccc1-n1c(-c2ccc3ccccc3n2)n[nH]c1=S	0%	nt	-6%	nt	5%	-2%	12%[46.1 µM]	7%
